Ecoli growth – inhibitors of Escherichia coli growth. AID 1053175. actives 0.21% (n = 330,000). OD600, 23 h; hits give low values. OD600 absorbance (concentration not given with the values);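 active = OD600 absorbance below the run mean of sample wells minus 3.6 SD, in any replicate, cut at about 0.56 in these data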;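 also: stock transfer was 300 nL into about 60 µL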
Ecoli rRNA inh – inhibits bacterial ribosomal RNA function over humanized ribosomes. AID 720706. actives 1.6% (n = 350,000). GFP signal change (wild-type ribosome), % (concentration not given with the values). E. coli WT GFP vs humanized-ribosome RFP mutants, fluorescence, 24 h; hits give low values; DMSO median 0, no signal -100;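 active = significant combined selectivity score with lowered wild-type GFP, culture density cut under 30%, mutant RFP and density less affected; inactive = any of these conditions unmet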; also: one replicate is shown; some compounds called inactive have numbers as strong as hits
FGF22 binding – FGF22 (human) thermal shift binding. Q9HCT0. recombinant FGF22 thermal shift, SYPRO orange fluorescence; percent of sucrose octasulfate shift, DMSO zero. calls only at 9.99 µM. actives 1.5% (n = 340,000);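 active = melting point raised past a set limit in the mean and every replicate; inconclusive = no clear call; three in four hits are not shown here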
HNF4A DNA FP – change in binding of human HNF4 alpha to DNA; P41235; HNF4a-FITC DNA binding, fluorescence polarization, 1 h; activity change, % at 10 µM; actives 0.3% (n = 360,000); AID 1224865; in the data active = activity change above about 30%, passing the limit was not always enough;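 also: controls were the assay level and a saturating level of protein; the project sought stronger binding though the title names inhibitors; some compounds called inactive have numbers as strong as hits; positive values seem to mean higher polarization but the record does not say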
Target sequence (P41235 whole entry, looked up): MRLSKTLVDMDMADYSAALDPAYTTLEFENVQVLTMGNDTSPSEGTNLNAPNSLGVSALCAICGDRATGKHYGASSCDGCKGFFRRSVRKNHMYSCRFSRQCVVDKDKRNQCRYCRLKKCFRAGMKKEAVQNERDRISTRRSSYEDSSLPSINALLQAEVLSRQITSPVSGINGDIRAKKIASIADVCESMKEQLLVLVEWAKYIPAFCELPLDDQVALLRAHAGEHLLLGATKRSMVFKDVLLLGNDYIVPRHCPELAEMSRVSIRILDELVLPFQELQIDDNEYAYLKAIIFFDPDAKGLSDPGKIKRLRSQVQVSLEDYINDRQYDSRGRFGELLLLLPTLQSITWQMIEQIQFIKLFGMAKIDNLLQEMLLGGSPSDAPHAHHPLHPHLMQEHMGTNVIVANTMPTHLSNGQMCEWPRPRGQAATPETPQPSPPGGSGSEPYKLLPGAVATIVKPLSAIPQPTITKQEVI
Vif TR-FRET – inhibitors of Vif binding to APOBEC3G peptide, primary screen, biochemical, TR-FRET, GST-Vif 1-94, biotin-A3G peptide, dose response retest (AID 1117319); TR-FRET GST-Vif / biotin-A3G peptide binding; higher % means a stronger effect; test concentration not given here; strong numbers were not always called active; actives 0.57% (n = 260,000); inhibition, %, or IC50 in µM where a hit was titrated;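 active = above the screen mean plus three standard deviations and confirmed in dose response; inconclusive = results disagree or hit not tested in dose response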;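 also: Vif residues 1-94 fused to GST binding biotinylated APOBEC3G peptide 110-148; 0% = full assay without inhibitor and 100% = GST in place of GST-Vif; retest series ran down from 100 µM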
AF4-AF9 inh – inhibitors of human MLL-AF4/AF9 interaction; AID 651704; actives 0.47% (n = 350,000); P42568; inhibition, % at 10 µM; AlphaScreen, biotin-AF4 peptide binding to FLAG-AF9;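 active = every replicate reaching a set inhibition limit, whatever the replicate mean, cut at about 25% in these data; inconclusive = mean inhibition reaches that limit but some replicates miss it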;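 also: 0% = plate neutral control median and 100% = total signal loss; the record names both 10 and 1 µM as test concentration; the first replicate is given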
Target sequence (P42568 whole entry, looked up): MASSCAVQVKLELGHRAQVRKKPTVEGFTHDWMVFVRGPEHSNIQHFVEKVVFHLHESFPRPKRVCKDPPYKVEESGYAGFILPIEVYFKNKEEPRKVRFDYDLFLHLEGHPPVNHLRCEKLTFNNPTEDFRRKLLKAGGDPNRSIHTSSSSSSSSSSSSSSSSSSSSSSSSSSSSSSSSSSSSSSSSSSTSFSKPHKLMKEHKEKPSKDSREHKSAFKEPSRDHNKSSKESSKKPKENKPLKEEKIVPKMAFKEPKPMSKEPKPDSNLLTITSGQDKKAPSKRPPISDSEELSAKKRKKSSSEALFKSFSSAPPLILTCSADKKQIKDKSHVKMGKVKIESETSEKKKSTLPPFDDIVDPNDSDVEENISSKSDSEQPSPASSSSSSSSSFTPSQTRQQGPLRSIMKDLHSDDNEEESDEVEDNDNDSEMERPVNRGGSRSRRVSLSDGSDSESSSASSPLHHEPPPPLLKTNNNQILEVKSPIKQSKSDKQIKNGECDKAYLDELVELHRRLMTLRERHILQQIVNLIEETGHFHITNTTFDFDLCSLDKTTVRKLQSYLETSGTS
ALR H2O2 inh – human ALR oxidase inhibition via reduced H2O2. P55789. inhibition, % (no concentration beside the values). actives 3.8% (n = 290,000). purified ALR, DTT oxidation, H2O2 HRP-luminol luminescence;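 active = mean and each replicate at 75% or more; inconclusive = only one of the two met; inactive = neither met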;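 also: stock transfer was 7.5 nL into about 7.5 µL; 0% = neutral wells and 100% = wells with inactivated enzyme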
Ecoli rRNA inh OD600 – recorded beside Ecoli rRNA inh, whose call it bears; OD600 change, %; measured here: OD600 growth;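 optical density of the mix in the first replicate; 0 = DMSO median and -100 = no signal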
Ecoli rRNA inh RFP – also measured in Ecoli rRNA inh; calls as there; RFP signal change, %; measured here: RFP humanized mutant strains;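 first replicate; 0 = DMSO median and -100 = no signal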
Numbers without * were called inactive; i = inactive; ? = inconclusive; . = no result given; + = active, no number. Some of the compounds tested; the hit share may differ from the screen's.

The opening 5 entries (preview)
Ecoli growth	Ecoli rRNA inh	Ecoli rRNA inh OD600	Ecoli rRNA inh RFP	FGF22 binding	HNF4A DNA FP	Vif TR-FRET	AF4-AF9 inh	ALR H2O2 inh	structure
.	6	17	-2.8	i	.	.	1.4	.	CN1C(=O)c2cc(NC(=O)c3cscn3)ccc2OC[C@H]2O[C@@H](CC(=O)N3CCOCC3)CC[C@@H]21
0.68	-1	9	-3.3	i	0.2	.	-26	-9	CC(C)Oc1nc(-c2ccc(Cl)cc2)nc2ccccc12
0.67	.	.	.	.	9.6	0%	.	.	Nc1nc(SCc2nc3sc4c(c3c(=O)[nH]2)CCCC4)n[nH]1
.	3	-1	-0.9	i	-0.4	-2%	-2.8	.	O=c1[nH]nc(SC2CCCCC2)c(=O)[nH]1
.	0	1	-0.7	i	.	.	-0.5	.	C[C@@H]1CN([C@H](C)CO)C(=O)c2cccc(NC(=O)C3CCOCC3)c2O[C@H]1CN(C)S(C)(=O)=O

This part in full (from the top)
Ecoli growth	Ecoli rRNA inh	Ecoli rRNA inh OD600	Ecoli rRNA inh RFP	FGF22 binding	HNF4A DNA FP	Vif TR-FRET	AF4-AF9 inh	ALR H2O2 inh	structure
.	6	17	-2.8	i	.	.	1.4	.	CN1C(=O)c2cc(NC(=O)c3cscn3)ccc2OC[C@H]2O[C@@H](CC(=O)N3CCOCC3)CC[C@@H]21
0.68	-1	9	-3.3	i	0.2	.	-26	-9	CC(C)Oc1nc(-c2ccc(Cl)cc2)nc2ccccc12
0.67	.	.	.	.	9.6	0%	.	.	Nc1nc(SCc2nc3sc4c(c3c(=O)[nH]2)CCCC4)n[nH]1
.	3	-1	-0.9	i	-0.4	-2%	-2.8	.	O=c1[nH]nc(SC2CCCCC2)c(=O)[nH]1
.	0	1	-0.7	i	.	.	-0.5	.	C[C@@H]1CN([C@H](C)CO)C(=O)c2cccc(NC(=O)C3CCOCC3)c2O[C@H]1CN(C)S(C)(=O)=O
.	-1	-4	-1.1	i	.	.	0.9	.	COc1ccc(S(=O)(=O)Nc2ccc3c(c2)CC(=O)N([C@@H](C)CO)C[C@@H](C)[C@H](CN(C)S(=O)(=O)c2cn(C)cn2)O3)cc1
0.68	18	19	1.6	i	-1.8	-3%	12	-68	COc1cc(CCC(C)NCc2ccccc2)ccc1O (configuration not stated)
0.67	6	6	-2.4	i	0.8	-1%	-1.3	.	O=S(=O)(Nc1cccc(-n2cnnn2)c1)c1ccc(F)cc1
.	2	-1	1.6	i	0.4	.	-5.3	-11	COc1cccc(/C=N/NC(=O)c2cccc3ccccc23)c1
0.65	17	16	1.4	i	-4.8	.	-0.4	-2	COc1cc(OC)cc(C2=NCCN2)c1
0.73	-8	-10	0.3	.	0.8	.	-4.8	-25	CC(C)CNC(=O)c1oc2ccccc2c1COc1ccccc1
0.71	-7	-17	12	i	1.0	.	-4.1	1	COC(=O)c1ccc(Cn2nnc3c(=O)[nH]c(C4CCN(S(=O)(=O)c5ccc(F)cc5)CC4)nc32)cc1
0.64	.	.	.	.	1.9	-4%	.	24	CN1CCN(c2oc(-c3ccccc3F)nc2S(=O)(=O)c2ccc(Cl)cc2)CC1
0.78	-13	-16	-4.4	i	-0.6	.	?	.	CC1CN(C(=O)CCC(=O)NCc2ccccc2)c2ccccc2S1 (configuration not stated)
0.65	-15	-17	-8.4	i	3.1	.	1.5	-17	COCc1cc(C)nc(SCc2ccccc2Cl)c1C#N
0.69	.	.	.	i	-1.7	.	-0.3	-5	CC1CN(S(=O)(=O)c2cccc(C(=O)NCc3ccccn3)c2)CC(C)O1 (configuration not stated)
0.63	-12	-5	-4.1	i	-2.2	?	1.7	34	O=[N+]([O-])c1ccc(S(=O)(=O)Nc2nc(-c3ccccc3)cs2)cc1
.	11	10	0.7	i	5.3	?	.	.	Cn1c(=S)n(/N=C/c2cccs2)c2ccccc21
0.67	1	-8	2.0	i	4.7	.	5.1	97*	COc1ccc(CNc2nc3ccccc3n2CCN2CCCCC2)cc1
.	4	8	-1.2	i	.	.	-0.7	.	O=C([C@@H]1[C@@H](CO)[C@@H]2Cn3c(cccc3=O)[C@H]1N2CC1CC1)N1CCc2ccccc2C1
.	18	15	0.5	i	0.5	.	-11	.	N#CC1(Nc2ccc(S(N)(=O)=O)cc2)CCCC1
0.71	-12	-5	-6.8	i	2.6	.	-2.2	14	N#Cc1c(NC(=O)/C=C/c2ccco2)sc2c1CCCC2
.	-2	1	-1.3	i	.	.	2.2	.	O=C(C[C@H]1CC[C@H]2[C@@H](COC[C@H](O)CN2Cc2cccc(-c3ccncc3)c2)O1)N1CCCCC1
0.66	.	.	.	.	1.7	-3%	.	4	COc1cc2[nH]c3c(=O)n(CCN(C(C)C)C(C)C)cnc3c2cc1OC
.	3	4	0.5	i	.	.	-0.3	.	C[C@H]1CN([C@@H](C)CO)C(=O)c2cc(NC(=O)Nc3ccccc3)ccc2O[C@H]1CN(C)Cc1ccncc1
.	6	17	-1.2	i	4.8	18%	-0.4	-2	CCOC(=O)C(=N/O)/C(C)=N/NC(C)=O
0.71	-19	-3	9.0	i	3.4	4%	-5.2	7	Cc1nc2ccsc2c(=O)n1-c1ccc(Cl)cc1
.	2	0	-1.2	i	.	.	-3.4	.	COc1ccc(NC(=O)N(C)C[C@@H]2OCCCC[C@@H](C)Oc3ccc(NC(=O)Nc4c(C)noc4C)cc3C(=O)N([C@H](C)CO)C[C@@H]2C)cc1
0.64	5	-2	1.3	.	-2.2	2%	-0.8	-4	O=C1CCC(C(=O)OCc2nnc(-c3ccc(Cl)cc3)o2)=NN1
0.68	0	-1	-3.5	i	3.7	28%	0.5	.	O=C(CSc1nc(-c2cccs2)cc(C(F)(F)F)n1)NCCCn1ccnc1
.	2	5	-1.1	i	1.2	-4%	0.1	-2	C/C(=N\NC(=O)c1cccc(S(=O)(=O)N2CCCC2)c1)c1ccc(OCC(=O)N(C)C)cc1
0.66	-1	2	-0.9	i	-6.2	-1%	-1.0	-3	Cc1ccc(N2C(=O)c3ccccc3NC2(C(=O)O)c2ccccc2)cc1Cl (configuration not stated)
0.69	3	5	2.2	i	-2.4	27%	3.4	1	Cc1ccc(Cc2c(C)nc3nc(SCC(=O)NCCCN4CCOCC4)nn3c2C)cc1
0.64	.	.	.	.	0.3	8%	.	-2	CSc1cccc(NS(=O)(=O)c2ccccc2)c1
.	6	8	11	i	6.3	.	-0.9	.	N#Cc1ccc(-c2nc3c4ccccc4ccn3c2Cc2ccsc2)cc1
0.69	-1	1	3.7	i	-1.7	.	-8.9	-8	O=C(CN1C(=O)/C(=C/c2ccccc2F)Sc2ccccc21)NCC1CCCO1 (configuration not stated)
0.68	12	4	-1.1	i	-1.6	.	-2.2	21	CCn1c(CNS(=O)(=O)c2ccc(Cl)cc2)n[nH]c1=S
0.66	.	.	.	.	1.9	-9%	.	.	CC(C)N(C(=O)CSc1nnc(NC(=O)C2CCC2)s1)C(C)C
.	-29	-30	-4.7	.	51*	6%	2.0	-2	Cc1ccc(-c2ccc(/C=C3\SC(N4CCOCC4)=NC3=O)o2)cc1
0.67	14	5	2.0	i	2.1	15%	1.0	-6	CCOC(=O)c1[nH]c(C)c(/C(O)=C2\C(=O)C(=O)N(CCN3CCOCC3)C2c2ccco2)c1C (configuration not stated)

Reprinted at random: four compounds from above
Ecoli growth	Ecoli rRNA inh	Ecoli rRNA inh OD600	Ecoli rRNA inh RFP	FGF22 binding	HNF4A DNA FP	Vif TR-FRET	AF4-AF9 inh	ALR H2O2 inh	structure
0.66	.	.	.	.	1.7	-3%	.	4	COc1cc2[nH]c3c(=O)n(CCN(C(C)C)C(C)C)cnc3c2cc1OC
0.65	-15	-17	-8.4	i	3.1	.	1.5	-17	COCc1cc(C)nc(SCc2ccccc2Cl)c1C#N
0.66	-1	2	-0.9	i	-6.2	-1%	-1.0	-3	Cc1ccc(N2C(=O)c3ccccc3NC2(C(=O)O)c2ccccc2)cc1Cl (configuration not stated)
0.68	0	-1	-3.5	i	3.7	28%	0.5	.	O=C(CSc1nc(-c2cccs2)cc(C(F)(F)F)n1)NCCCn1ccnc1

Next entries follow.
Ecoli growth	Ecoli rRNA inh	Ecoli rRNA inh OD600	Ecoli rRNA inh RFP	FGF22 binding	HNF4A DNA FP	Vif TR-FRET	AF4-AF9 inh	ALR H2O2 inh	structure
0.68	-8	-4	-1.9	i	0.2	.	0.9	-22	O=[N+]([O-])c1cccc2c(S(=O)(=O)N3CCOCC3)cccc12
0.68	11	13	-1.2	i	-2.5	.	-4.1	-1	COCCNC(=O)CN(C(=O)CCC(=O)Nc1ccccn1)c1ccc(C)cc1C
0.69	-6	-2	2.9	i	1.5	.	-19	-10	Cc1ccc(/C=C2\SC(=S)N(CCC(=O)NNC(=O)c3cccc(O)c3)C2=O)cc1
0.7	3	-1	-1.8	i	-0.2	-4%	0.6	23	CCOP(=O)(OCC)c1nc(-c2ccc(C)cc2)oc1NCc1ccccc1
.	.	.	.	.	-3.1	?	.	80*	COc1ccc(/C=N/NC(=O)c2ccccc2O)cc1Cn1cc(Cl)cn1
.	-1	8	-0.6	+	.	.	-11	.	OC[C@H]1[C@H](c2ccc(-c3cccnc3)cc2)[C@H]2CN(Cc3ccccn3)CCCCN21
.	-2	-6	-0.9	i	.	.	1.1	.	CO[C@@H]1CN(C)C(=O)c2ccc(NC(=O)C3CCCC3)cc2OC[C@@H](C)N(CC2CC2)C[C@H]1C
0.75	.	.	.	.	0.2	4%	.	0	c1ccc(-c2cc(N3CCCCC3)nc(-c3ccccc3)n2)cc1
0.66	9	12	2.0	i	-0.5	-1%	-3.0	-5	O=C(CNC(=O)c1ccccc1)NCC(O)c1ccc([N+](=O)[O-])cc1 (configuration not stated)
0.71	-1	-4	3.7	i	-6.6	.	4.2	53	COc1cc(/C=C2\C(=N)N3N=C(S(C)(=O)=O)SC3=NC2=O)cc(OC)c1OCCOc1ccccc1C
0.68	3	2	-2.0	i	0.0	-3%	5.0	-2	CC(C)CN(C(=O)CSc1n[nH]c(-c2cccs2)n1)C1CCS(=O)(=O)C1 (configuration not stated)
.	-6	-7	2.9	i	-4.4	.	-0.2	.	CCCCN(C=O)c1c(CC)nc2c(OCc3cccc(Cl)c3)cccn12
0.78	.	.	.	.	.	-2%	.	-13	CCOC(=O)C1=C(C)N=C2SC(C)C(=O)N2C1c1ccc(OC(C)=O)c(OCC)c1 (configuration not stated)
.	-20	-34	-11	i	.	.	-3.1	.	C[C@H]1CN([C@@H](C)CO)S(=O)(=O)c2ccc(-c3ccc(C#N)cc3)cc2O[C@@H]1CN(C)Cc1ccccn1

Bioassay records from PubChem.
